Assay outcomes from PubChem BioAssay.
AF4-AF9 inh: MLL-AF4/AF9 protein interaction inhibition; AlphaScreen, biotin-AF4 peptide binding to FLAG-AF9; P42568; inhibition, % at 10 µM; 350,000 compounds, 0.47% hits;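 active = every replicate reaching a set inhibition limit, whatever the replicate mean, cut at about 25% in these data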;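 note: 0% = plate neutral control median and 100% = total signal loss; the record names both 10 and 1 µM as test concentration; the first replicate is given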
Target sequence (P42568 whole entry, looked up): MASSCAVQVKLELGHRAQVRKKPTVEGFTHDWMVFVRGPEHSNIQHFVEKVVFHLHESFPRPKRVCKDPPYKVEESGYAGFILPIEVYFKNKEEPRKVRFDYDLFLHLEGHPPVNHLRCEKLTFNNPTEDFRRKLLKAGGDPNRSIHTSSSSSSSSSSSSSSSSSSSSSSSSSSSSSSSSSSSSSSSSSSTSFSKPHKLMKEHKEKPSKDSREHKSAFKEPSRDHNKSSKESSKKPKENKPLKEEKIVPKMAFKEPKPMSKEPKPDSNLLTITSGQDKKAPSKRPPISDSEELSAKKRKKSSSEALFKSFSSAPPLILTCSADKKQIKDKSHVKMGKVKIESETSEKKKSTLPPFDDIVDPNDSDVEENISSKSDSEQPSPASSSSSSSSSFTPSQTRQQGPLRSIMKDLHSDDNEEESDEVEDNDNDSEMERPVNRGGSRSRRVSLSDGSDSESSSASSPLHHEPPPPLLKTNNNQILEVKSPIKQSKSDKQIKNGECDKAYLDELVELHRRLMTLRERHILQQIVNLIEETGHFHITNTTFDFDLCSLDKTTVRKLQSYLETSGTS
FGF22 binding: FGF22 (human) thermal shift binding; recombinant FGF22 thermal shift, SYPRO orange fluorescence; percent of sucrose octasulfate shift, DMSO zero; calls only at 9.99 µM; 340,000 compounds, 1.5% hits;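 active = melting point raised past a set limit in the mean and every replicate; three in four hits are not shown here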
Target sequence (Q9HCT0 whole entry, looked up): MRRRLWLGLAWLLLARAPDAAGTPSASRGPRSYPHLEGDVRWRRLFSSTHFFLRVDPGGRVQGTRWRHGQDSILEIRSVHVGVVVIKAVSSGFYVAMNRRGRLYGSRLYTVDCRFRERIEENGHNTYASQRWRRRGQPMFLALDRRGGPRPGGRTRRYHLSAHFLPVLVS
The depositor's hits bear a star; i = inactive; & = joins results of further samples.

SMILES | AF4-AF9 inh | FGF22 binding
C[C@H](CO)N1C[C@H](C)[C@@H](CN(C)C(=O)C2CCCCC2)Oc2ncc(-c3ccccc3F)cc2C1=O | -0.3 | i
COc1ccc(S(=O)(=O)N[C@@H]2C=C[C@H](CC(=O)N3CCc4ccccc4C3)O[C@H]2CO)cc1 | -1.3 | i
CN(C)CC(=O)Nc1ccc2c(c1)[C@@H]1C[C@@H](CC(=O)NCc3ccc(-c4ccccc4)cc3)O[C@@H](CO)[C@@H]1O2 | 2.7 | i
Cc1cc(C(=O)Nc2cccc3c2O[C@@H](CN(C)C(=O)Nc2cccc4ccccc24)[C@H](C)CN([C@@H](C)CO)C3=O)n(C)n1 | -0.5 | i
O=C(N[C@@H]1CC[C@H](CCn2cc(Cc3ccccc3)nn2)O[C@H]1CO)c1cnccn1 | -2.7 | i
CCC(=O)N[C@@H]1CC[C@@H](CCn2cc(CN(C)C)nn2)O[C@@H]1CO | -2.5 | i
C[C@H](CO)N1C[C@H](C)[C@@H](CN(C)C(=O)Nc2ccc3c(c2)OCO3)Oc2c(NS(=O)(=O)c3ccc(Cl)cc3)cccc2C1=O | -0.6 | i
Cc1noc(C)c1NC(=O)N(C)C[C@H]1Oc2ccc(NS(=O)(=O)c3cn(C)cn3)cc2C(=O)N([C@H](C)CO)C[C@H]1C | -2.7 | i
CCOC(=O)C1=C[C@@H](C(C)(C)C)N(S(=O)(=O)c2ccc([N+](=O)[O-])cc2)[C@H]1c1ccccc1Cl | 4.7 | i
COc1ccc(-c2ccc3c(n2)CCCN3S(=O)(=O)c2ccc(C#N)cc2)cc1 | 1.6 | i
C[C@@H]1CN([C@H](C)CO)C(=O)c2cc(NS(=O)(=O)c3ccc(Cl)cc3)ccc2O[C@@H]1CN(C)Cc1ccc2c(c1)OCO2 | 5.0 | i
O=C(C[C@H]1C=C[C@H](NC(=O)C2CC2)[C@@H](CO)O1)Nc1nccs1 | 1.2 | i
C[C@@H]1CN([C@H](C)CO)C(=O)c2cc(-c3cccc(C(=O)N(C)C)c3)cnc2O[C@@H]1CN(C)C | -3.9 | i
C[C@H]1CN([C@@H](C)CO)C(=O)c2cc(NS(C)(=O)=O)ccc2O[C@@H]1CN(C)CC1CCCCC1 | -8.8 | i
CCCN1C[C@@H](C)[C@@H](OC)CN(C)C(=O)c2ccc(NC(=O)C3CC3)cc2OC[C@@H]1C | -1.3 | i
COc1ccc2c3c(n(C)c2c1)[C@@H](CO)N(Cc1ccccc1)CC31CCN(C(=O)c2ccccc2F)CC1 | 6.3 | i
C[C@H]1CN([C@@H](C)CO)C(=O)Cc2cc(NC(=O)CCCCCC(=O)Nc3ccccc3N)ccc2O[C@H]1CN(C)S(=O)(=O)c1cn(C)cn1 | 2.7 | i
CCCN1[C@@H]2c3ccc(-c4ccc(F)cc4)c(=O)n3C[C@H]1[C@H](CO)[C@H]2C(=O)NCCOC | -15 | i
Cc1noc(C)c1NC(=O)Nc1ccc2c(c1)CC(=O)N([C@H](C)CO)C[C@@H](C)[C@@H](CN(C)C)O2 | -2.0 | i
C[C@H]1CN([C@@H](C)CO)C(=O)c2cccc(NC(=O)c3cnccn3)c2O[C@H]1CN(C)S(=O)(=O)c1cn(C)cn1 | -1.2 | i
COc1ccc(COC[C@@]23Oc4ccccc4[C@@H](NC(=O)N2C)[C@H]3COC(=O)c2ccc([N+](=O)[O-])cc2)cc1 | 11 | i
CO[C@H]1CN(C)C(=O)c2cc(NS(C)(=O)=O)ccc2OC[C@@H](C)N(C(=O)C2CCOCC2)C[C@@H]1C | -0.8 | i
COc1ccccc1CNC(=O)C[C@@H]1CC[C@@H]2[C@@H](COc3ccc(NS(=O)(=O)c4ccc(C)cc4)cc3C(=O)N2C)O1 | -16 | i
COc1ccc(NC(=O)N(C)C[C@H]2Oc3ccc(NC(=O)c4ccncc4)cc3C(=O)N([C@H](C)CO)C[C@H]2C)cc1 | -4.6 | i
C[C@H]1CN([C@@H](C)CO)C(=O)c2cccc(NC(=O)c3nc4ccccc4s3)c2O[C@H]1CN(C)C(=O)Nc1ccccc1 | 3.4 | i
Other entries:
SMILES | AF4-AF9 inh | FGF22 binding
O=C(CN1CCOCC1)NCC[C@@H]1CC[C@@H](NC(=O)Nc2ccccc2)[C@H](CO)O1 | -1.7 | i
O=C(NCC[C@H]1CC[C@H](NC(=O)C2CCC2)[C@@H](CO)O1)c1cc(Cl)cc(Cl)c1 | -3.7 | i
COc1ccc(NC(=O)N(C)C[C@@H]2Oc3c(NC(=O)Nc4ccc5c(c4)OCO5)cccc3C(=O)N([C@@H](C)CO)C[C@H]2C)cc1 | 1.6 | i
COCC(=O)N(C)C[C@@H]1Oc2cc(-c3ccc(C#N)cc3)ccc2S(=O)(=O)N([C@H](C)CO)C[C@@H]1C | -5.6 | i
CO[C@@H]1CN(C)C(=O)c2cc(NC(=O)C3CC3)ccc2OC[C@@H](C)N(C)C[C@H]1C | -2.6 | i
C[C@H]1CN([C@@H](C)CO)C(=O)CCCn2cc(nn2)CO[C@H]1CN(C)Cc1ccc2cccnc2c1 | -2.5 | i
CO[C@H]1CN(C)C(=O)c2cc(NC(C)=O)ccc2OC[C@H](C)N(CCc2ccccc2)C[C@@H]1C | 4.0 | i
C[C@@H]1CN([C@@H](C)CO)C(=O)c2cc(-c3ccc(C#N)cc3)cnc2O[C@H]1CN(C)Cc1cncnc1 | -5.4 | i
CC(C)C(=O)Nc1ccc2c(c1)C(=O)N(C)[C@H]1CC[C@@H](CC(=O)NCc3ccccc3)O[C@@H]1CO2 | -13 | i
C[C@@H]1CN([C@@H](C)CO)C(=O)CCCn2cc(nn2)CO[C@@H]1CN(C)Cc1cccc(C(=O)O)c1 | -17 | i
N#Cc1cccc(-c2ccc3c(c2)[C@H]2[C@H](CCN2S(=O)(=O)c2ccccc2)[C@@H](CO)N3)c1 | 1.5 | i
N#C[C@H]1[C@H](c2ccccc2-c2ccccc2F)[C@@H](CO)N1C(=O)C1CC1 | -1.3 | i
CO[C@H]1CN(C)C(=O)c2cc(NC(C)=O)ccc2OC[C@H](C)N(C(=O)CN(C)C)C[C@@H]1C | -1.4 | i
COCC#Cc1ccc2c(c1)O[C@@H](CN(C)Cc1ccccn1)[C@@H](C)CN([C@@H](C)CO)S2(=O)=O | -4.4 | i
Cc1ccc(S(=O)(=O)Nc2ccc3c(c2)C(=O)N([C@H](C)CO)C[C@H](C)[C@@H](CN(C)Cc2ccc4c(c2)OCO4)OCCCC[C@H](C)O3)cc1 | 8.9 | i
C[C@@H]1CN([C@@H](C)CO)C(=O)c2cc(-c3ccccc3F)cnc2O[C@H]1CN(C)C(=O)NC1CCCC1 | -1.4 | i
C[C@@H]1CCCCO[C@@H](CN(C)S(=O)(=O)c2ccccc2)[C@H](C)CN([C@H](C)CO)C(=O)c2cc(N(C)C)ccc2O1 | 6.0 | i
C[C@@H]1CN([C@H](C)CO)C(=O)c2cc(NC(=O)Nc3ccc4c(c3)OCO4)ccc2O[C@H]1CN(C)S(=O)(=O)c1ccccc1 | 6.1 | i
COc1cccc(CN2[C@@H]3CN(C(=O)c4ccncc4)c4ccccc4[C@@H]3[C@@H]2CO)c1 | -1.2 | i
Cc1noc(C)c1NC(=O)N(C)C[C@H]1Oc2ccc(NC(=O)Nc3ccc4c(c3)OCO4)cc2CC(=O)N([C@@H](C)CO)C[C@@H]1C | -4.7 | i
CNC(=O)C[C@H]1CC[C@@H]2[C@@H](COc3ccc(NC(=O)Nc4ccc(C)cc4)cc3C(=O)N2C)O1 | -1.6 | i
CCCNC(=O)N1C[C@@H]2[C@H](c3ccccc31)[C@@H](CO)N2C(=O)Cc1ccccn1 | -1.8 | i
C[C@H](CO)N1C[C@H](C)[C@@H](CN(C)Cc2ccc(C(F)(F)F)cc2)Oc2c(NC(=O)c3cnccn3)cccc2C1=O | -2.9 | i
C[C@H](CO)N1C[C@H](C)[C@H](CN(C)CC2CCCCC2)Oc2cc(C3=CCCC3)ccc2S1(=O)=O | 7.4 | i
C[C@@H]1CN([C@@H](C)CO)C(=O)Cc2cc(NS(=O)(=O)c3ccc(F)cc3)ccc2O[C@@H]1CN(C)CC1CCCCC1 | 0.4 | i

Filtered by structure: the compounds so far with a cyano group.
SMILES | AF4-AF9 inh | FGF22 binding
COc1ccc(-c2ccc3c(n2)CCCN3S(=O)(=O)c2ccc(C#N)cc2)cc1 | 1.6 | i
COCC(=O)N(C)C[C@@H]1Oc2cc(-c3ccc(C#N)cc3)ccc2S(=O)(=O)N([C@H](C)CO)C[C@@H]1C | -5.6 | i
C[C@@H]1CN([C@@H](C)CO)C(=O)c2cc(-c3ccc(C#N)cc3)cnc2O[C@H]1CN(C)Cc1cncnc1 | -5.4 | i
N#Cc1cccc(-c2ccc3c(c2)[C@H]2[C@H](CCN2S(=O)(=O)c2ccccc2)[C@@H](CO)N3)c1 | 1.5 | i
N#C[C@H]1[C@H](c2ccccc2-c2ccccc2F)[C@@H](CO)N1C(=O)C1CC1 | -1.3 | i

Other entries.
SMILES | AF4-AF9 inh | FGF22 binding
CN1CCN(C(=O)[C@@H]2[C@@H](CO)[C@@H]3Cn4c(cccc4=O)[C@H]2N3S(=O)(=O)c2ccccc2F)CC1 | -2.2 | i
CNC[C@H]1Oc2ccc(NS(=O)(=O)c3ccccc3)cc2C(=O)N([C@@H](C)CO)C[C@H]1C | -2.2 | i
O=C(C[C@H]1C=C[C@@H](NC(=O)Nc2cc(F)ccc2F)[C@@H](CO)O1)Nc1ccccc1 | -0.2 | i
CO[C@@H]1CN(C)C(=O)c2cc(NC(=O)C3CC3)ccc2OC[C@H](C)N(Cc2nccs2)C[C@H]1C | 0.1 | i
Cc1ccc(S(=O)(=O)N(C)C[C@H]2OCc3ccccc3-c3ccccc3C(=O)N([C@@H](C)CO)C[C@@H]2C)cc1 | 3.9 | i
CC1=CC2C3C(=O)N(c4ccccc4)C(=O)C3C1C(=O)C2(O)C(C)C (stereo not given) | -1.9 | i
O=C(C[C@H]1CC[C@H]2[C@@H](COC[C@H](O)CN2Cc2cc(F)ccc2F)O1)N[C@@H]1CCN(Cc2ccccc2)C1 | 7.1 | i
O=C(C[C@H]1CC[C@@H]2[C@H](COC[C@H](O)CN2CC2CCCCC2)O1)NCC1CC1 | -2.6 | i
CO[C@H](CN(C)S(=O)(=O)c1cccc(Cl)c1)[C@@H](C)CN([C@@H](C)CO)S(=O)(=O)c1cccc(Cl)c1 | -7.7 | i
C[C@H](CO)N1C[C@H](C)[C@H](CN(C)S(=O)(=O)c2ccc(Cl)cc2)OCCCC[C@H](C)Oc2ccc(NS(=O)(=O)c3cccs3)cc2C1=O | 1.6 | i
COc1ccccc1NC(=O)N1CCCCN2[C@@H](CO)[C@H](c3ccc(-c4ccccc4)cc3)[C@@H]2C1 | 7.1 | i
COCC(=O)Nc1ccc2c(c1)[C@@H]1C[C@@H](CC(=O)NCc3ccc4c(c3)OCO4)O[C@H](CO)[C@@H]1O2 | 0.5 | i
COc1ccc(NC(=O)N(C)C[C@@H]2Oc3ncc(-c4cccnc4)cc3C(=O)N([C@H](C)CO)C[C@H]2C)cc1 | -3.0 | i
C[C@@H]1CN([C@@H](C)CO)C(=O)Cc2cc(NS(C)(=O)=O)ccc2O[C@H]1CN(C)CC1CCCCC1 | 0.8 | i
COc1ccccc1-c1cn(CC[C@@H]2CC[C@H](NC(=O)c3ccccc3F)[C@@H](CO)O2)nn1 | -3.5 | i
CNC(=O)C[C@@H]1CC[C@H]2[C@H](COc3ccc(NC(=O)NC4CCCC4)cc3C(=O)N2C)O1 | 0.4 | i
O=C(c1ccccc1)N1[C@H](CO)[C@H](c2ccccc2)C12CN(CCC(F)(F)F)C2 | 0.1 | i
CCCNC(=O)C[C@@H]1C[C@H]2c3cc(NC(=O)COC)ccc3O[C@H]2[C@@H](CO)O1 | 0.5 | i
C[C@H]1CCCCO[C@H](CN(C)C(=O)c2ccccc2)[C@@H](C)CN([C@@H](C)CO)C(=O)c2cc(NC(=O)Nc3ccc(C(F)(F)F)cc3)ccc2O1 | 0.2 | i
C[C@@H]1CN([C@@H](C)CO)C(=O)CCCn2cc(nn2)CO[C@H]1CN(C)C(=O)c1ccccc1 | 1.0&-1.8&-0.2 | i
COc1cccc(S(=O)(=O)N(C)C[C@@H]2Oc3cc(C#CCC(C)C)ccc3S(=O)(=O)N([C@@H](C)CO)C[C@@H]2C)c1 | -3.2 | i
CC(C)CC#Cc1ccc2c(c1)O[C@H](CN(C)C(=O)C1CCCCC1)[C@H](C)CN([C@H](C)CO)S2(=O)=O | 2.2 | i
COc1cccc(-c2cnc3c(c2)C(=O)N([C@H](C)CO)C[C@@H](C)[C@H](CN(C)C(C)=O)O3)c1 | -2.5 | i
COc1ccc(S(=O)(=O)N(C)C[C@H]2Oc3c(NC(=O)c4ccc(-c5nccs5)cc4)cccc3C(=O)N([C@H](C)CO)C[C@H]2C)cc1 | 2.1 | i
COc1ccc(CN(C)C[C@H]2Oc3ccc(NS(=O)(=O)c4c(C)noc4C)cc3CC(=O)N([C@H](C)CO)C[C@@H]2C)cc1 | 3.3 | i
C[C@@H]1CN([C@H](C)CO)C(=O)c2cc(C#CCN(C)C)cnc2O[C@@H]1CN(C)C(=O)c1cnccn1 | -5.5 | i

Entries of single compounds, looked up by structure. Order of values: AF4-AF9 inh	FGF22 binding
C[C@H](CO)N1C[C@H](C)[C@H](CN(C)S(=O)(=O)c2ccc(Cl)cc2)OCCCC[C@H](C)Oc2ccc(NS(=O)(=O)c3cccs3)cc2C1=O is entered as 1.6	i
CCCNC(=O)C[C@@H]1C[C@H]2c3cc(NC(=O)COC)ccc3O[C@H]2[C@@H](CO)O1 is entered as 0.5	i
COc1ccc(NC(=O)N(C)C[C@@H]2Oc3ncc(-c4cccnc4)cc3C(=O)N([C@H](C)CO)C[C@H]2C)cc1 is entered as -3.0	i

This is a subset; the hit share may differ from the screen's.
